Rango-impB inh: prevents formation of the Rango-importin beta complex. Rango CFP/YFP FRET sensor + importin beta, 45 min. Potency, µM (highest dose often 92.2 µM), without a hit: at the highest dose inhibition of complex formation. actives 0.031% (n = 340,000). AID 540263; active = rising FRET ratio curve, often small or poorly fitted; inconclusive = mostly compound fluorescence or quenching in the first reads; inactive = flat curves in all reads;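 note: potency is the fitted concentration of half-maximal effect; 0% = DMSO wells and 100% = buffer wells lacking importin beta; nearly all actives have a fitted effect of over 15% in size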
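Inhibition scored from the CFP 486 nm/YFP 530 nm FRET ratio 45 min after adding 0.125 microM importin beta to 50 nM Rango biosensor preincubated 5 min with compound (room temperature, PBS with DTT, Tween-20, BSA). No-importin wells as positive control.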
GLA inh pH 4.5: blocks human alpha-galactosidase A at pH 4.5. AID 1467. 230,000 tested, under 10 active. purified enzyme, 4-MU-alpha-Gal fluorescence, pH 4.5. P06280. activity change, negative = inhibition, % at 105 µM; inconclusive = small, poorly fitted or top-dose-only inhibition, or a rising curve; inactive = flat fitted curve, though single readings scatter; no compound was filed as active;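 note: 0% = full activity with enzyme and -100% = basal without enzyme; dose as in the result columns while the protocol names 77 µM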
Target sequence (P06280 whole entry, looked up): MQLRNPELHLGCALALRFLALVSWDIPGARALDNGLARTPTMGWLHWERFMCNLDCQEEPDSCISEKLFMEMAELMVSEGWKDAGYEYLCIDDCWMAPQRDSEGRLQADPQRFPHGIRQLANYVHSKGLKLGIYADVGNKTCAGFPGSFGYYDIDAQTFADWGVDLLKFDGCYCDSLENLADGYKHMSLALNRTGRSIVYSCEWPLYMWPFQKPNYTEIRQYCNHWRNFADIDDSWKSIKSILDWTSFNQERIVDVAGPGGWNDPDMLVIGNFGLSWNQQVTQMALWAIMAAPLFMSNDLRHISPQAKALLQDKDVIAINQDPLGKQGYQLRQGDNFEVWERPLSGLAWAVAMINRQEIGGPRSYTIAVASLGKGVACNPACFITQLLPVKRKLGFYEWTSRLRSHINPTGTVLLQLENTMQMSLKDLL
Rango dissoc inh: prevents RanGTP from dissociating the Rango-importin beta complex; O95149+P62826; Biochemical FRET Rango-importin beta, RanGTP-induced dissociation; Potency, µM (titrated, usually from 46.1 µM), without a hit: top-dose activity change, negative = inhibition; actives 0.071% (n = 340,000); AID 540253; active means falling FRET ratio curve, often poorly fitted, with flat reads before Ran was added; inconclusive means other falling curves, or compound fluorescence or quenching; inactive means flat or rising ratio curve;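 note: potency is the fitted concentration of half-maximal effect; % of control where 0% means no effect; nearly all actives have a fitted effect of over 45% in size; -100% = wells without RanGTP and RCC1; the record marks most hits as doubtful in a second field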
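Rango/importin beta premix (0.1/0.25 uM final), PBS + 1 mM DTT + 0.02% Tween-20 + 0.1% BSA; cpd 5 min RT; FRET pre-read; + RanGTP-RCC1 (0.6 uM Ran, 2 mM GTP, 0.2 uM RCC1); 45 min RT; FRET post-read, ex 430, em 486/530 nm.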
miR-21 reporter: raises the signal of a miR-21 reporter. HeLa miR-21 FLuc reporter, luciferase, 48 h. Potency, µM (titrated, usually from 38.3 µM), without a hit: top-dose reporter change, positive = more light. 340,000 tested, under 10 active. AID 2288; active = well fitted rising curve with a large enough effect; inconclusive = small, poorly fitted or top-dose-only effect; inactive = no such curve, though single readings can be large or run the other way;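 note: % of control where 0% means no effect; miR-21 action dims this reporter so a rising signal means less miR-21 action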
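HeLa miR-21-FLuc reporter line, endogenous miR-21; 2000 cells/well in DMEM/10% FBS; compound titration up to ~40uM final, 48 h, 37 degree Celsius; luciferase detection reagent, 15 min lysis, CCD luminescence.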
* marks the source's active call; other numbers are inactive results; ? = inconclusive; nt = not tested or not shown; & = joins results of further samples.

SMILES | Rango-impB inh | GLA inh pH 4.5 | Rango dissoc inh | miR-21 reporter
CCOC(=O)c1ccc(NC(=O)NC2CC3CCC(C2)N3Cc2nnnn2Cc2ccco2)cc1 (stereo not given) | -3.3% | -8 | 12% | 14%
Cc1ccc(CN2C(=O)c3ccccc3NC2c2cc(Br)ccc2O)cc1 (stereo not given) | -1.9% | nt | -7% | 5%
O=C(Nc1c(Br)cc2c(c1Br)Cc1ccccc1-2)C(F)(F)F | 5.2% | nt | -10% | nt
CCOC(=O)C1CCN(C(=O)c2cc3ccccc3oc2=O)CC1 | 0.5% | -2 | 5% | -21%
Cc1ccc(O)c(-c2cc(C(F)(F)C(F)F)nc(-c3ccccc3)n2)c1 | -0.4% | -1 | -10% | 0%
COc1ccccc1-c1nnc(NC(=O)c2ccc(S(=O)(=O)N(C)Cc3ccccc3)cc2)o1 | -0.8% | -3 | -1% | -5%
COc1ccc(CCNc2oc(Cc3cccc4ccccc34)nc2C#N)cc1OC | -5.3% | 7 | 3% | 7%
C=CCC1(CC=C)CCCN1C(=O)CC1C(=O)NCCN1Cc1cc(OC)cc(OC)c1 (stereo not given) | -0.3% | 11 | -15% | -3%
CCCOc1ccccc1Nc1nnc(C)c(=O)[nH]1 | -4.6% | -4 | 31% | -1%
CCN(CC)C(=O)Cn1cc(SCC(=O)NC)c2ccccc21 | -0.1% | 5 | -2% | -2%

Two records picked at random from the list so far:
SMILES | Rango-impB inh | GLA inh pH 4.5 | Rango dissoc inh | miR-21 reporter
COc1ccc(CCNc2oc(Cc3cccc4ccccc34)nc2C#N)cc1OC | -5.3% | 7 | 3% | 7%
O=C(Nc1c(Br)cc2c(c1Br)Cc1ccccc1-2)C(F)(F)F | 5.2% | nt | -10% | nt

(list continues)
SMILES | Rango-impB inh | GLA inh pH 4.5 | Rango dissoc inh | miR-21 reporter
Cc1c(C(=O)N2CCOCC2)[nH]c2ccc(OCc3ccccc3)cc12 | 0.8% | -8 | -3% | 10%
CN1CCN(c2ncnc3scc(-c4ccccc4Cl)c23)CC1 | -2.1% | nt | -17% | 20%
CCCCCNC(=O)CN(c1ccc2c(c1)OCO2)S(C)(=O)=O | 2.2% | -16 | -5% | -5%
CC(=O)c1c(C)[nH]c(C(=O)Nc2cccc(S(=O)(=O)N(C)c3ccccc3)c2)c1C | 0.7% | -7 | 9% | 29%
CC(C)C(=O)NC(Nc1ccc(S(N)(=O)=O)cc1)C(Cl)(Cl)Cl (stereo not given) | -0.7% | 5 | -10% | -2%
Cc1nc2ccc(C(=O)N3c4ccccc4CC3C)cc2s1 (stereo not given) | -0.3% | 4 | 8% | 15%
CC1Sc2ccc(S(=O)(=O)N3CCC(C(=O)N(C)Cc4ccccc4)CC3)cc2NC1=O (stereo not given) | 2.8% | nt | -9% | 24%
C=C(C)C1CC=C(C)/C(=N/NC(=O)c2ccc(NC(=O)c3cccc(C)c3)cc2)C1 (stereo not given) | 4.9% | -14 | -3% | 0%
Cc1ccccc1N=C1SCC(=O)N1Cc1ccccc1 | 2.8% | 0 | 10% | -3%
CSc1ncc(C(=O)Nc2ccccc2Cl)c(C)n1 | 0.2% | nt | -4% | -7%
CC(/C=C1\SC(=S)N(NC(=O)c2cccc(O)c2)C1=O)=C\c1ccccc1 | 1.8% | -13 | 7% | -3%
CCOC(=O)N1CCN(C(=O)c2ccc(CS(=O)(=O)c3c(Cl)cccc3Cl)o2)CC1 | -0.4% | 5 | 35% | -9%
O=C(/C=C/c1cn(CC(O)CN2CCCCC2)c2ccccc12)c1cccs1 (stereo not given) | ? | 4 | ? | -6%
O=C(c1ccccc1)N1CCN(C(=O)c2nn3c(C(F)(F)F)cc(-c4ccccc4)nc3c2Br)CC1 | ? | nt | -8% | -2%
NC(=O)c1nsc(C(=O)N(c2ccc(F)cc2)C(C(=O)NC2CCCC2)c2ccncc2)c1N (stereo not given) | -1.0% | nt | 1% | 0%
COc1cccc(-n2nnc(S(=O)(=O)c3ccc(C)cc3)c2N)c1 | 0.2% | -1 | 17% | 1%
CNC(=O)c1cc(C(=O)c2ccc(F)cc2C(F)(F)F)c[nH]1 | -0.7% | nt | 1% | 6%
O=C(CCCN1C(=O)S/C(=C\C=C\c2ccccc2)C1=O)Nc1ccc(O)cc1 | -1.0% | nt | 1% | -4%
COc1ccc(-c2nc(CS(=O)CC(=O)NC3CCC(C)CC3)c(C)o2)cc1OC (stereo not given) | 1.5% | nt | 8% | -49%
Cc1ccc(-c2nnnn2CS(=O)(=O)c2ccccc2)cc1 | 0.4% | 1 | 1% | -19%
O=C(Nc1ccc(Cl)cn1)c1cccc(F)c1 | -2.3% | -1 | 7% | -13%
COc1cccc(CCNC(=O)CCCC(=O)c2ccccc2)c1 | 0.3% | nt | 18% | -2%
O=C(NCn1cnccc1=O)c1ccccc1 | 0.2% | 3 | -7% | 0%
S=C(NCc1ccc(Cl)cc1)NC12CC3CC(CC(C3)C1)C2 | -1.1% | -4 | 8% | 29%
Cc1ccc(C)c(NC(=O)COC(=O)CC2c3ccccc3CCN2S(=O)(=O)c2ccc(F)cc2)c1 (stereo not given) | -1.0% | -24 | 4% | 9%
Nc1ccc(-n2nnnc2CN2CCOCC2)cc1 | -1.2% | -4 | 10% | -10%
CCc1nnc(NC(=O)Cn2c(=O)oc3ccccc32)s1 | 5.1% | -5 | -8% | -5%
Cc1ccc(C)c(NC(=O)CN2C(=O)c3ccccc3C2=O)c1 | -0.5% | nt | -5% | nt
COc1ccccc1CCNC(=O)C(=O)NCC1OCCN1S(=O)(=O)c1ccc(C)cc1 (stereo not given) | -2.5% | nt | -6% | 13%
O=S(=O)(c1ccccc1)N(Cc1ccc(Cl)cc1)c1ccncc1 | -2.5% | nt | -10% | 6%

In the list so far, 4 have an NH in an aromatic ring:
SMILES | Rango-impB inh | GLA inh pH 4.5 | Rango dissoc inh | miR-21 reporter
CCCOc1ccccc1Nc1nnc(C)c(=O)[nH]1 | -4.6% | -4 | 31% | -1%
Cc1c(C(=O)N2CCOCC2)[nH]c2ccc(OCc3ccccc3)cc12 | 0.8% | -8 | -3% | 10%
CC(=O)c1c(C)[nH]c(C(=O)Nc2cccc(S(=O)(=O)N(C)c3ccccc3)c2)c1C | 0.7% | -7 | 9% | 29%
CNC(=O)c1cc(C(=O)c2ccc(F)cc2C(F)(F)F)c[nH]1 | -0.7% | nt | 1% | 6%

The listing continues:
SMILES | Rango-impB inh | GLA inh pH 4.5 | Rango dissoc inh | miR-21 reporter
O=C(COC(=O)c1ccc(Br)o1)NCC(=O)Nc1ccc(F)cc1 | 0.5% | nt | -11% | nt
Cn1c(=O)c(=O)n(C)c2cc(S(=O)(=O)N3CCN(C4CCCCC4)CC3)ccc21 | -0.4% | 3 | -10% | 0%
CC(=O)N(C)c1cc([N+](=O)[O-])ccc1OCc1ccccc1 | 0.6% | nt | 11% | nt
N#C/C(=C\c1ccc[nH]1)C(=O)NCC1CCCO1 (stereo not given) | 2.2% | -16 | -6% | -26%
CCCCn1c(N)c(S(=O)(=O)c2ccc(C)cc2)c2nc3ccccc3nc21 | ? | 29 | ? | -1%
O=C(CCc1nc2ccccc2c(=O)[nH]1)N1CCCc2ccccc21 | ? | nt | ? | nt
C=CCn1c(NCc2ccc(OC)cc2)nc2ccccc21 | -0.3% | nt | 3% | -40%
CC(C)(C)NC(=O)CSc1nnc(-c2ccncc2)n1Cc1ccccc1 | 0.9% | -6 | 10% | -13%
Cc1noc(C)c1NC(=O)Nc1cccc2c1O[C@H](CN(C)S(C)(=O)=O)[C@@H](C)CN([C@H](C)CO)C2=O | 0.1% | nt | -3% | nt
COC(=O)N/N=C(\C)c1ccccc1OC(F)F | -2.6% | -6 | 0% | -4%
Cc1cc2ncn(/N=C/c3ccc([N+](=O)[O-])s3)c2cc1C | ? | 0 | -15% | -3%
CNC(=O)C(NC(=O)CNC(=O)c1ccc(Cl)cc1)C(C)(C)C (stereo not given) | 2.8% | 7 | 1% | 0%
CCCCN(CCCC)CCNC(=O)CSCc1ccc(C)cc1 | -1.4% | -13 | 4% | 0%
O=C1N[C@H]2CC=C[C@H]2Nc2ccccc21 | 0.9% | nt | 14% | nt
O=C(N/N=C1\CCCc2c1[nH]c1ccc([N+](=O)[O-])cc21)c1ccncc1 | nt | 6 | nt | -5%
Cc1ccc2nc(-c3ccc(NC(=O)COC(=O)c4ccc([N+](=O)[O-])o4)cc3)sc2c1 | -0.8% | -2 | 2% | -18%
Cc1ccc(Nc2nc(N)c([N+](=O)[O-])c(N3CCC(C)CC3)n2)cc1C | -1.0% | -9 | 1% | 0%
CC(=O)N1CCCc2cc(S(=O)(=O)N3CCCC(C(=O)Nc4cc(C)ccc4C)C3)ccc21 (stereo not given) | 0.6% | nt | 9% | 2%
COC(=O)Cc1c(C)nc2nc(NCc3cccc([N+](=O)[O-])c3)[nH]n2c1=O | 1.2% | 6 | 0% | 0%
CC1=CC(C)C(C[N+]2(C)CCCCC2)C(C)C1 (stereo not given) | 0.6% | 8 | 35% | 1%
O=C(c1ccc(F)cc1)c1cccc(C(=O)c2ccc(F)cc2)n1 | 0.0% | nt | 5% | nt
CCN(CC(=O)NCc1cccs1)C(=O)c1cccc(S(=O)(=O)N2CC(C)OC(C)C2)c1 (stereo not given) | -0.5% | nt | -11% | nt
CC(C)N(C(=O)COC(=O)c1ccc(Cl)c(S(N)(=O)=O)c1)C(C)C | 1.7% | -5 | -5% | 0%
O=S(=O)(c1ccc(Cl)c(Cl)c1)c1snnc1-c1ccccc1 | 0.0% | -14 | 1% | ?
O=C(CCN1C(=O)/C(=C/c2ccc(F)cc2)SC1=S)NCCc1ccc(O)cc1 | 3.2% | nt | 0% | 0%
COc1ccc(C(C(=O)NCc2ccccc2)N(Cc2ccco2)C(=O)c2snc(C(N)=O)c2N)cc1 (stereo not given) | 0.0% | nt | -9% | 16%
CC(NC(=O)c1cccc(F)c1)C(c1cccs1)N1CCN(C)CC1 (stereo not given) | 0.2% | 3 | 0% | -5%
COc1ccc(C(=O)Nc2ccc(N3CCN(C)CC3)cc2)cc1 | -1.0% | nt | -10% | -55%
CNc1nnc(-c2ccncc2)s1 | 1.2% | -10 | -9% | -4%
CCCNC(=O)c1c(N)n(-c2cc(OC)cc(OC)c2)c2nc3ccccc3nc12 | ? | 21 | ? | 3%
O=C(CCc1nnc2n(Cc3ccc(F)cc3)c(=O)c3ccccc3n12)NCCCN1CCOCC1 | -2.9% | nt | ? | 3%
Cc1ccc(C)c(NCCC#N)c1 | -0.9% | 0 | -4% | -2%
OC1CCN(c2cc(-c3ccccc3)nc3cc(-c4ccc(F)cc4)nn23)CC1 | ? | 24 | 0% | 11%
O=C(CSc1ccc([N+](=O)[O-])cn1)Nc1ccc2c(c1)OCO2 | -2.1% | nt | -3% | -10%
COCC(=O)N(Cc1cc2ccc(C)cc2[nH]c1=O)c1ccc(OC)cc1 | -0.3% | 1 | -2% | -3%
CCCc1cc(=O)[nH]c(SCC(=O)N(C)C2CCS(=O)(=O)C2)n1 (stereo not given) | 0.4% | 2 | 6% | -1%
COc1cc2c(cc1NC(=S)NC(=O)/C=C/c1ccc(OC)c(OC)c1)oc1ccccc12 | 0.0% | -2 | -10% | -9%
Cc1ccc(N2C(=O)Nc3ccccc3S2(=O)=O)cc1Cl | 2.9% | nt | -6% | 3%
CCN(c1ccccc1)S(=O)(=O)c1ccc(Cl)c(C(=O)NCC2CCCO2)c1 (stereo not given) | -0.5% | -6 | -3% | 1%
FC(F)(F)c1cnc2c(-c3ccccc3)n[nH]c2c1 | -0.2% | 3 | -15% | -51%
COc1cccc(OCC(Cn2c(C)nc3ccccc32)OC(C)=O)c1 (stereo not given) | -2.4% | -1 | -6% | 6%
O=C1c2cccc(O)c2C(=O)c2c(O)cccc21 | nt | -6&2 | nt | -4%
Cc1ccc(OCC(=O)NC(=S)Nc2ccc(Br)cn2)cc1C | 2.6% | 0 | -13% | -4%
CCN(Cc1ccccc1)S(=O)(=O)c1cc(C(=O)NC(C)C2CC3CCC2C3)ccc1OC (stereo not given) | -0.9% | -3 | -2% | 30%
COc1ccc(CNc2nc3ccccc3n2C)c(O)c1 | -1.4% | 2 | ? | -71%

High-throughput results from PubChem.

This is a subset (hit frequency here may not be typical).
